Screens as filed in PubChem.
Sa growth 42C – blocks Staphylococcus aureus growth; 170,000 tested, 0.53% active; S. aureus RN4220 growth, OD600, 20 h, 42 °C; stronger effect = lower value; AID 720641; relative growth, % (test concentration not listed);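 active = growth at 42 °C up to 50% and 20 or more points under that at 30 °C, or under 10% at both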;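 also: 300 nL library stock went into each well; scaled to the means of positive and negative controls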
HCMV UL50-53 inh – disrupts HCMV UL50-UL53 complex binding; 190,000 tested, 0.15% active; HTRF UL50-UL53 interaction, normalized percent inhibition; inhibition, % (no concentration beside the values);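 active = both replicates at 50% or more, plus weaker picks with an unusually low signal ratio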;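 also: stock transfer was 100 nL into about 20 µL; 0% = negative control wells and 100% = wells with untagged competitor protein; inactives centre near -12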
GIV-Gai inh – inhibitors of GIV GBA-motif binding to rat Galpha-i3; Galpha-i3/FITC-GIV peptide fluorescence polarization, 90 min; stronger effect = lower value; scaled: aluminum fluoride 0%, vehicle 100%; percent of control (FP), % (test concentration not listed); 210,000 tested, 0.42% active; AID 1224905;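 active = replicate mean at 85% of control or lower, very high polarization wells dropped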;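 also: wells of about 15 µL received 100 nL stock; the first replicate is given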
Target sequence (P08753 whole entry, looked up): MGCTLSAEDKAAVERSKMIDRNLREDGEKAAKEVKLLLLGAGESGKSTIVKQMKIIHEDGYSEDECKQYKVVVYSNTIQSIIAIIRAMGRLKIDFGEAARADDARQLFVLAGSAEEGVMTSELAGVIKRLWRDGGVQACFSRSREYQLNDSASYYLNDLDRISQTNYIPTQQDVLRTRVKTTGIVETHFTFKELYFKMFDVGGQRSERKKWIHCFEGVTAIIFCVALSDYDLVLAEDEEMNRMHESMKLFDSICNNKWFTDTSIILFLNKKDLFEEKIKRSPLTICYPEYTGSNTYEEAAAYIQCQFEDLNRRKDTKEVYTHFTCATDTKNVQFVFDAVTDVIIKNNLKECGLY
Sa growth 42C second temp – also measured in Sa growth 42C; calls as there; relative growth, %; measured here: growth at 30 °C;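 optical density after 20 h as mean of two plates; 100% = untreated growth and lower means inhibition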
Numbers without * were called inactive; / = no result given; & = joins results of further samples.

Letters – A = Sa growth 42C; B = Sa growth 42C second temp; C = HCMV UL50-53 inh; D = GIV-Gai inh
[1] CCSC1=C(C#N)C(c2ccccc2Cl)C2=C(CCCC2=O)N1 (stereo not given)
  A: 106	B: 91	C: -23	D: 108

[2] CN(CC(=O)Nc1cccnc1)S(=O)(=O)c1ccc2[nH]c3c(c2c1)CCCC3
  A: 92	B: 77	C: /	D: 100

[3] O=C(ONc1cnc2ccccc2c1)c1ccco1
  A: 97	B: 83	C: -42	D: 102

[4] COc1ccc(C2Nc3ccccc3C(=O)N2c2ccc(F)cc2)cc1COc1ccc(NC(C)=O)cc1 (stereo not given)
  A: /	B: /	C: 3	D: 104

[5] CCN(CC)CCn1c(N)nc2ccccc21
  A: 96	B: 83	C: -28	D: /

[6] O=C(N/N=C1/C(=O)c2cccc3cccc1c23)NC1CCCCC1
  A: 61	B: 53	C: -98	D: /

[7] CCCCc1nnc2sc(COc3cccc(OC)c3)nn12
  A: /	B: /	C: -16	D: 106

[8] COc1ccc(S(=O)(=O)NCc2cccn2Cc2cc(C)ccc2C)cc1OC
  A: 110	B: 85	C: /	D: 98

[9] N#CCCn1c(CC(N)=O)nc2ccccc21
  A: 106	B: 78	C: -6	D: 105

[10] Cc1cccc(OCC(=O)Nc2ccc3c(c2)nc2n3CCN(c3ccccc3)C2)c1
  A: 97	B: 72	C: /	D: 101

[11] CSc1nn(-c2ccccc2)cc1C(=O)N1CCCCC1
  A: 102	B: 84	C: -44	D: 106

[12] Cc1noc2c1C(c1ccccc1F)C1=C(CC(c3ccccc3)CC1=O)N2 (stereo not given)
  A: /	B: /	C: 2	D: 102

[13] Clc1ccc(Cn2nnc3c(SCc4cccnc4)ncnc32)cc1
  A: 92	B: 93	C: -30	D: 106

[14] CCCC(C)C(=O)NCc1ccc(C)cc1 (stereo not given)
  A: 95	B: 86	C: -13	D: /

[15] Cc1oc(-c2cccc(Cl)c2)nc1CN1CCCC(C(=O)NCCc2ccc(Cl)cc2)C1 (stereo not given)
  A: 123	B: 94	C: -16	D: 102

[16] O=c1cc(CNc2ccccc2F)nc2nc(NCc3ccccc3)[nH]n12
  A: /	B: /	C: -26	D: 98

[17] Cc1ccc(S(=O)(=O)N(C)c2ccsc2C(=O)n2nc(C)cc2C)cc1
  A: /	B: /	C: -12	D: 99

[18] COc1ccc(CCNC(=O)CCCCn2c(=O)c3ccccc3n(Cc3ccc(Cl)cc3)c2=O)cc1OC
  A: 99	B: 83	C: -18	D: 103

[19] O=C(NCc1ccccc1)c1cc2ccc(O)cc2oc1=O
  A: 97	B: 94	C: -74	D: 105

[20] CCOc1ccc(-c2cn3c(n2)sc2cc(C(=O)NCc4cccs4)ccc23)cc1
  A: 86	B: 72	C: -13	D: 102

[21] Cc1onc(-c2ccccc2)c1C(=O)ON=C1C2CC3CC(C2)CC1C3
  A: 94	B: 89	C: -23	D: 101

[22] CCCNC(=O)c1c(NC(=O)c2ccccc2F)sc2c1CCCCC2
  A: 109	B: 91	C: -32	D: 104

[23] CCOc1ccc(C2NC(C(=O)O)CS2)cc1 (stereo not given)
  A: 108	B: 92	C: -1	D: 100

[24] Cc1ccc(C2c3c(oc4ccc(C)cc4c3=O)C(=O)N2c2ccccn2)cc1 (stereo not given)
  A: 99	B: 80	C: -4	D: 99

[25] COc1ccc(CCNC(=O)CS(=O)Cc2nc(-c3ccccc3F)oc2C)cc1OC (stereo not given)
  A: 104	B: 87	C: -26	D: 104

[26] Clc1cccc(-c2cc3nc4c(c(N5CCCCC5)n3n2)CCCC4)c1
  A: 95	B: 78	C: -7	D: 101

[27] O=C1OC(c2ccc(Cl)cc2)/C(=C(/O)c2ccccc2)C1=O (stereo not given)
  A: 91	B: 75	C: /	D: 89

[28] Cc1ccc(N=Cc2ccc3c(c2)OCCO3)cc1C
  A: 97	B: 83	C: -14	D: /

[29] O=C(O)c1cccc(OCc2ccccc2)c1
  A: 132	B: 91	C: -18	D: /

[30] Cc1ccc(-c2nnc(Nc3ccc(O)cc3)c3ccccc23)cc1S(=O)(=O)N1CCN(C)CC1
  A: 108	B: 81	C: -41	D: 106

Along the list, as entered above:
Compounds 19–29 in Sa growth 42C second temp, in turn: 94, 72, 89, 91, 92, 80, 87, 78, 75, 83, 91
Compounds 19–29 in Sa growth 42C, in turn: 97, 86, 94, 109, 108, 99, 104, 95, 91, 97, 132
Compounds 19–29 in HCMV UL50-53 inh, in turn: -74, -13, -23, -32, -1, -4, -26, -7, /, -14, -18

Shown as labelled records: 4 of the compounds above
2. CN(CC(=O)Nc1cccnc1)S(=O)(=O)c1ccc2[nH]c3c(c2c1)CCCC3
  Sa growth 42C = 92	Sa growth 42C second temp = 77	HCMV UL50-53 inh = /	GIV-Gai inh = 100

3. O=C(ONc1cnc2ccccc2c1)c1ccco1
  Sa growth 42C = 97	Sa growth 42C second temp = 83	HCMV UL50-53 inh = -42	GIV-Gai inh = 102

4. COc1ccc(C2Nc3ccccc3C(=O)N2c2ccc(F)cc2)cc1COc1ccc(NC(C)=O)cc1 (stereo not given)
  Sa growth 42C = /	Sa growth 42C second temp = /	HCMV UL50-53 inh = 3	GIV-Gai inh = 104

5. CCN(CC)CCn1c(N)nc2ccccc21
  Sa growth 42C = 96	Sa growth 42C second temp = 83	HCMV UL50-53 inh = -28	GIV-Gai inh = /

Next results follow:
Letters – A = Sa growth 42C; B = Sa growth 42C second temp; C = HCMV UL50-53 inh; D = GIV-Gai inh
[31] CC1(C)CCc2cc(CN3CCN(c4ncc(C(F)(F)F)cc4Cl)CC3)ccc2O1
  A: 102	B: 98	C: 23	D: 100

[32] O=C(Cn1c(=O)c2ccccc2n2c(=S)sc(-c3ccccc3)c12)NCC1CCCO1 (stereo not given)
  A: /	B: /	C: -16	D: 78*

[33] CC12CS(=O)(=O)CC1SC(=S)N2Cc1ccccc1 (stereo not given)
  A: 109	B: 91	C: /	D: 106

[34] O=C(NCCc1nc2cccnc2n1-c1ccccc1)Nc1ccccc1Cl
  A: /	B: /	C: -17	D: 107

[35] C/C(=N\NC(=O)c1ccc(NS(=O)(=O)c2cccs2)cc1)c1cccs1
  A: 108	B: 101	C: -48	D: /

[36] Cc1ccc2c(c1)N(C(=O)COc1cc(-c3ccccc3)nc3ccccc13)CCO2
  A: /	B: /	C: -12	D: 107

[37] O=C(COC(=O)c1cccc2ccccc12)NC1CC1
  A: 82	B: 86	C: -74	D: /

[38] COCCNC(=O)N1CCN(S(=O)(=O)c2cc3c(cc2Cl)NC(=O)C(C)O3)CC1 (stereo not given)
  A: /	B: /	C: -4	D: 103

[39] Cc1cc(OCC(=O)N(C)C2CCCCC2)ccc1Cl
  A: 109	B: 89	C: /	D: 105

[40] Nc1nc(N)nc(COc2ccccc2)n1
  A: 98	B: 90	C: -19	D: 103

[41] CNS(=O)(=O)c1cn(CC(=O)N2CCN(c3ccccc3F)CC2)cc1S(=O)(=O)NC
  A: 93	B: 93	C: /	D: 103

[42] COc1ccc2c(c1)C=C(C(=O)NC1CCN(Cc3ccccc3)CC1)CO2
  A: /	B: /	C: -45	D: 101

[43] COc1ccc(Cn2cccc2C2=NCC(C)O2)cc1 (stereo not given)
  A: 104	B: 91	C: -17	D: 98

[44] COc1ccc(NC(=O)c2c(C)oc3ccc(OC)cc23)cc1
  A: /	B: /	C: -5	D: 104

[45] Cc1ccc(S(=O)(=O)NC(=O)CC#N)cc1
  A: 79	B: 102	C: 22	D: 104

[46] O=C1C(=O)N(C2CCN(S(=O)(=O)c3cccc(Cl)c3)CC2)CCN1Cc1cccc(F)c1
  A: /	B: /	C: -24	D: 99

[47] CCN(CC)CCCN1C(=O)C(=O)/C(=C(/O)c2cc(C)ccc2C)C1c1cccs1 (stereo not given)
  A: 114	B: 90	C: -15	D: /

[48] COc1ccc(-c2cc(C(F)(F)F)n3nc(C(=O)Nc4cccc(Cl)c4C)cc3n2)cc1
  A: 94	B: 91	C: -14	D: 103

[49] Cc1cn2c(=O)cc(COC(=O)c3cccc(NC(=O)c4ccccc4C)c3)nc2s1
  A: 75	B: 74	C: /	D: 102

[50] Cc1nc(C)nc(NC(=O)NC(=O)c2cc(OCC(F)(F)F)ccc2OCC(F)(F)F)n1
  A: 96	B: 97	C: -23	D: 104

[51] Cc1ccc2c(c1)CCCN2C(=O)C1CCCO1 (stereo not given)
  A: 113	B: 95	C: -12	D: 102

[52] CC1(C)Cc2c(c(N3CCOCC3)nc3sc4c(c23)N2C(=O)CCC2(C)NC4=O)CO1 (stereo not given)
  A: 81	B: 103	C: -8	D: 97

[53] O=C1NCN(c2ccccc2)C12CCN(CCCC(c1ccc(F)cc1)c1ccc(F)cc1)CC2
  A: 74	B: 38	C: -17&-1&-34&-29	D: 104&99

[54] CNC(=S)NN(Cc1ccccc1)c1ccccc1
  A: 101	B: 92	C: -13	D: /

[55] Cc1nc(C(F)(F)F)ccc1C(=O)Nc1nc2ccsc2c(=O)s1
  A: 103	B: 96	C: 0	D: 97

[56] O=C(CCCCn1c(=O)[nH]c2ccsc2c1=O)N1CCN(c2ccccc2)CC1
  A: 98	B: 92	C: 0	D: 102

[57] O=c1c2ccc(Cl)cc2nc(SCc2nnc(-c3cccs3)o2)n1Cc1ccco1
  A: 85	B: 82	C: -24	D: /

[58] COc1cc(NS(=O)(=O)c2cccs2)cc(OC)c1
  A: 106	B: 90	C: -6	D: 103

[59] CN(C)/C=C/C=C/c1cc(=O)cc(/C=C/C=C/N(C)C)o1
  A: 71	B: 87	C: 67*	D: 5.8*

[60] CCOC(=O)c1c(-c2ccccc2)oc2c1cc(OC(=O)C(C)(C)C)c1ccccc12
  A: /	B: /	C: -6	D: 101

[61] O=C(CN1CCCN(Cc2cccc(F)c2)S1(=O)=O)NCc1ccccc1Cl
  A: /	B: /	C: -12	D: 103

[62] CCCNC(=O)c1ccc2ncsc2c1
  A: 98	B: 84	C: -2	D: /

[63] O=C(OCC(=O)N1CCCCC1)c1cccc2ccccc12
  A: 109	B: 91	C: -53	D: /

[64] O=C(c1sc2cc(F)ccc2c1Cl)N1CCCCCC1
  A: 102	B: 101	C: -3	D: /

[65] Cn1c(=O)c2c(nc(SCC(=O)Nc3ccc(F)cc3)n2Cc2ccc(Cl)cc2)n(C)c1=O
  A: 105	B: 90	C: -22	D: 102

[66] COc1nc2sccn2c1/C=N/N1CC(=O)NC1=O
  A: 70	B: 88	C: -40	D: /

[67] O=c1c2c([nH]n1-c1ccccc1)CCSC2
  A: 107	B: 97	C: 1	D: 104

[68] Cc1cccc(-c2noc(CN3CCN(Cc4ccc5c(c4)OCO5)CC3)n2)c1
  A: /	B: /	C: -37	D: 100

[69] O=C(CC1CCN(C(=O)c2ccccc2)CC1)NCc1ccccc1
  A: /	B: /	C: -41	D: 99

[70] COc1cccc(CN2C(=O)C3(C(C#N)=C(N)OC4=C3C(=O)CCC4)c3ccccc32)c1 (stereo not given)
  A: 101	B: 82	C: -13	D: /

[71] CCC(O)c1nc2ccccc2n1CCOc1ccc(C)c(C)c1 (stereo not given)
  A: 107	B: 97	C: -9	D: 102

[72] CCCCN(C)C(=O)c1ccc(Cn2c(=O)c3cccn3c3cccnc32)cc1
  A: /	B: /	C: -10	D: 104

[73] CCCN1CCN(S(=O)(=O)c2cc(OCC)c(-n3cnnn3)cc2OCC)CC1
  A: 96	B: 98	C: -10	D: 112

[74] Cc1nc(SCC(C)C)c(C#N)c(C)c1C
  A: 112	B: 101	C: -3	D: /

[75] CC1CCC(NS(=O)(=O)c2ccc3c(c2)n(C)c(=O)c(=O)n3C)CC1 (stereo not given)
  A: 74	B: 78	C: /	D: 109

[76] CCOc1ccccc1NC(=O)c1ccc2nc[nH]c2c1
  A: 72	B: 87	C: -31	D: /

[77] CCOc1ccccc1CNC(=O)CN1C(=O)c2cccnc2Oc2ccc(Cl)cc21
  A: 107	B: 101	C: /	D: 108

[78] CC(C)OP(C)(=O)CN1CCCC1=O (stereo not given)
  A: 90	B: 92	C: -12	D: 100

[79] O=C1CCC(=O)N1c1cccc(-c2nc3ccccc3o2)c1
  A: 90	B: 73	C: -16	D: 95

[80] O=C(c1c(Cl)nc2sccn12)N1CCCc2ccccc21
  A: 92	B: 89	C: -4	D: /

[81] Cc1cccc(Nc2nc(CC(=O)O)cs2)c1
  A: 90	B: 72	C: /	D: 106

[82] O=C(Cc1ccc2c(c1)OCO2)N1CCC(c2noc(-c3ccc(S(=O)(=O)N4CCCC4)cc3)n2)CC1
  A: /	B: /	C: -13	D: 97

[83] OC(CN1CCOCC1)Cn1c2ccccc2c2ccccc21 (stereo not given)
  A: 126	B: 72	C: -16	D: 100

[84] CCC(C)OC(=O)C1=C(C)NC2=C(C(=O)CC(c3ccc(OC)cc3)C2)C1c1cc2c(cc1[N+](=O)[O-])OCO2 (stereo not given)
  A: /	B: /	C: -16	D: 103

[85] COc1ccccc1C(=O)NCCC(=O)Nc1ccc(N2CCN(C)CC2)cc1C
  A: 93	B: 81	C: -37	D: /

[86] CCC(=O)N1CCc2cc(CNS(=O)(=O)c3ccc(C(C)C)cc3)ccc21
  A: 105	B: 78	C: -40	D: 104
